Screens (PubChem BioAssay)
TRPML1 blocker = human mucolipin-1 channel inhibition; Q9GZU1; TRPML1-inducible cells, Ca2+ dye fluorescence, FDSS; hits give low values; inhibition of EC80 agonist-evoked calcium signal; activity change, negative = inhibition, % (test concentration not listed); actives 0.02% (n = 390,000); in the data active means activity change below about -50%; inconclusive means about -30% to -50%; inactive means above about -30%;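 also: stimulus is agonist 54-4 at its EC80 concentration; % is scaled to controls: 0 for no effect and ±100 for the full control effect; compound concentration not given in the record; the text of the record puts the active cut at -80%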
Target sequence (Q9GZU1 whole entry, looked up): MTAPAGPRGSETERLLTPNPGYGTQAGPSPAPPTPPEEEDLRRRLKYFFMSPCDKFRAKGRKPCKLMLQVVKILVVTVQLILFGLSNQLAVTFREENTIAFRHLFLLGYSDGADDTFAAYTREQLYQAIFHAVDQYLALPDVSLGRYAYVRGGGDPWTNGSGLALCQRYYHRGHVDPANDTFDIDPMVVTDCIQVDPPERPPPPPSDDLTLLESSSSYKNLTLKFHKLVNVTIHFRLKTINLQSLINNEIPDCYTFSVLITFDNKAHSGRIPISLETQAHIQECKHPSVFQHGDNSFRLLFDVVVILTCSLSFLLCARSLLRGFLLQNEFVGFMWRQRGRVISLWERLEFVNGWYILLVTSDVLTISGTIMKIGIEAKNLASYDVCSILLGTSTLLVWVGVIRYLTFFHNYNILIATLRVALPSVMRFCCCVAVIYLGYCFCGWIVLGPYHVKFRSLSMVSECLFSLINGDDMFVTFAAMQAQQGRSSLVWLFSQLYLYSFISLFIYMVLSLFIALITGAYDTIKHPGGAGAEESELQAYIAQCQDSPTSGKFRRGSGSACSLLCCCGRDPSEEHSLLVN
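Calcium fluorescence in TRPML1-DL cells induced overnight with Tet: a 110 s read after compound pin addition, then a 110 s antagonist read after challenge with 54-4 at 4 uM final (EC80).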
D2 agonist = agonists of human D2 dopamine receptor (beta-arrestin) | P14416 | DiscoveRx PathHunter D2 beta-arrestin, luminescence, 90 min; 100% = 57 uM dopamine signal | activation, % (no concentration beside the values) | actives 0.084% (n = 360,000) | AID 624465; in the data active = activation above about 40%; inconclusive = about 15% to 40%; inactive = below about 15%; also: compound concentration not given in the record; the text of the record calls up to 30% inactive
Target sequence (P14416 whole entry, looked up): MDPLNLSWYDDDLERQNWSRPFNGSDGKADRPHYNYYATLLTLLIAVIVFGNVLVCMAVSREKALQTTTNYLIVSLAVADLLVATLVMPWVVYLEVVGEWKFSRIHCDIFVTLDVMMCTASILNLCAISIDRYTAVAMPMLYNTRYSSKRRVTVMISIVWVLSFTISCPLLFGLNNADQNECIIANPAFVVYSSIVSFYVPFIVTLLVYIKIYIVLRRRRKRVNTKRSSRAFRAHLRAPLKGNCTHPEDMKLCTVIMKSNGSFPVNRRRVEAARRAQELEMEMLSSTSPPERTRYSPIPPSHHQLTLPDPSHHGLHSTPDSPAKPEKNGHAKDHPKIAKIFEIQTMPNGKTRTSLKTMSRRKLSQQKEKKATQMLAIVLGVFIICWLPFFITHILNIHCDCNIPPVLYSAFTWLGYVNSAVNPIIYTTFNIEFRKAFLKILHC
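DiscoveRx PathHunter D2 beta-arrestin cells (2,100/well) attached overnight, then compound-stimulated 90 min at 37 C in HBSS/10 mM HEPES/0.1% Tween-20 buffer; beta-galactosidase complementation read by luminescence after 1 h at ambient temperature. Dopamine 57 uM final (EC100) as control.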
Six1-Eya2 inh = Six1/Eya2 interaction inhibition | AlphaScreen GST-Six1/His-Eya2 binding, biochemical; hits give low values; control for the full effect not named in the record | activity change, % (test concentration not listed) | actives 0.56% (n = 360,000) | AID 651725; in the data active = activity change below about -65%; inconclusive = about -30% to -65%; inactive = above about -30%; also: % is scaled to controls: 0 for no effect and ±100 for the full control effect; compound concentration not given in the record
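AlphaScreen luminescence read after one hour at 37 °C in darkness. Pin-transferred compounds met GST-Six1 and His-Eya2 protein (5X stock 250 nM/500 nM) plus glutathione donor and Ni-chelate acceptor beads (5X, 50 ug/mL).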
PINK1 expr mod = changes PINK1 expression; PINK1 immunofluorescence, high-content cytometry, 24 h; Potency, µM (series often up to 76.6 µM), inactives show at the top dose activation (PINK1 increase), actives largely listed as activators; actives 0.2% (n = 410,000); active = well fitted activation curve with a large enough effect; inconclusive = small, poorly fitted or top-dose-only effect; inactive = flat fitted curve, though single readings scatter; cell line not stated here;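 also: potency is read from the fitted curve at half-maximal effect; % of control where 0% means no effect; nearly all actives have a fitted effect of over 65% in size; a mitochondrial uncoupler was the plate control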
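Stable cell line, 250 cells/well, 12 h attachment; compounds pinned at 5 concentrations, 24 h; CCCP control. Fixed with nuclear dye, primary antibodies 12 h at 10 degrees C, secondary plus cell stain; laser-scanning cytometer read.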
D2 potentiator = potentiates the human D2 dopamine receptor allosterically; DiscoveRx D2 beta-arrestin cells, luminescence, 90 min; 100% = 57 uM dopamine signal; potentiation, % (test concentration not listed); actives 0.23% (n = 360,000); AID 624464; active = potentiation of 50% or more; inconclusive = 30% to 50%; inactive = 30% or less;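 also: compound concentration not given in the record; tested on top of an EC20 dose of dopamine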
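D2 cells co-treated with compound plus 50 nM dopamine (EC20) for 90 min at 37 deg C to detect potentiation. Beta-arrestin recruitment was read as enzyme-fragment luminescence after 1 h at ambient temperature. Full response was set by 57 uM dopamine.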
TRPML1 ag = agonists of human TRPML1 channel. actives 0.12% (n = 410,000). TRPML1-expressing cells, Ca2+ dye fluorescence, FDSS; host cell line not named in the record; reference of the full effect not given here. Q9GZU1. activation, % (no concentration beside the values). AID 624414; in the data active = activation above about 50%; inconclusive = about 30% to 50%; inactive = below about 30%; also: 0% is about no effect; the text of the record puts the active cut at 80%
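Agonist activity was taken from a 110 s kinetic Ca2+ dye read on the FDSS after pinning compounds onto TRPML1-DL cells. The cells were seeded at 1,500/well with Tet inducer, incubated about 16 h, then dye-loaded at room temperature.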
* = called active by the depositor; ? = inconclusive; . = no result given; & = joins results of further samples; [ ] = another dose, or the depositor's remark.

SMILES	TRPML1 blocker	D2 agonist	Six1-Eya2 inh	PINK1 expr mod	D2 potentiator	TRPML1 ag
Cc1c(C(=O)N2CCC(C)CC2)c(S(=O)(=O)N2CCN(c3cccc(Cl)c3)CC2)c(C)n1C	-8	.	.	-0.2%	.	0.2
COc1ccc(NC(=O)N(C)C[C@H]2Oc3ccc(NC(=O)C4CCCCC4)cc3C(=O)N([C@H](C)CO)C[C@@H]2C)cc1	25	-0.7	2	-0.1%	-6	-0.4
CC1CCN(c2ccc(-c3nc(-c4ccccc4)no3)cc2[N+](=O)[O-])CC1	-14	.	.	2.1%	.	0.7
CCn1c(N)c(C(=O)NCc2cccnc2)sc1=S	-14	-5.3	11	1.4%	-7	-0.5
CSc1nnc(-c2ccc(S(=O)(=O)N3CCOCC3)cc2)n1C	8	-4.0	-1	1.8%	-7	-0.2
O=C(CCN1CCN(c2ccccc2)CC1)NNC(=S)Nc1ccccc1	46	14	4	-1.4%	-5	0.0
O=C(NCCc1c[nH]c2ccccc12)C1CCC(Cn2c(=S)[nH]c3ccccc3c2=O)CC1 (stereo not given)	14	1.1	-10	-2.3%[38.3 µM]	3	-0.9
O=S(=O)(Nc1ccc(F)cc1)N1CCOCC1	-7	7.6	3	-2.2%	-1	-0.3
CCOc1ccc(Oc2ccc(NC(=O)[C@@H](NC(N)=O)[C@@H](C)CC)cc2)cc1	1	-0.3	0	0.0%	-3	0.4
O=C1NC(c2ccccc2)=C(c2nc3ccccc3s2)C(c2ccc(O)cc2)N1 (stereo not given)	6	1.0	-2	1.8%[38.3 µM]	7	-0.5
CCn1nc(NC(=O)c2ccco2)c2cc3ccccc3nc21	21	0.5	-1	?	-8	1.5
Cc1ccc(CNC(=O)c2cnc3c(-c4ccc(F)cc4)c(C)nn3c2C)o1	-8	.	.	4.0%	.	1.8
COCCCNc1oc(COc2ccc(Cl)cc2Cl)nc1C#N	-6	-4.6	6	-0.9%	-3	1.8
CCSc1nnc(-c2ccc(Cl)cc2)c2ccccc12	6	-0.2	5	0.1%	-3	1.7
O=C1C2C3CC(C(Br)C3Br)C2C(=O)N1c1nccs1 (stereo not given)	6	-2.0	2	-1.8%	-2	0.5
O=C1CSC(c2ccccn2)N1c1cccc(Cl)c1 (stereo not given)	-5	-1.8	25	1.3%	13	0.2
COc1ccc(-c2cc(C(=O)N/N=C/c3ccc(OC)c(COCC(F)(F)C(F)F)c3)c3ccccc3n2)c(OC)c1	-7	-3.8	-11	1.6%	-7	-0.5
COC(=O)C(NC(=O)c1ccc(C)cc1)(Nc1cccc(C)n1)C(F)(F)F (stereo not given)	-15	-1.0	8	2.7%	4	0.5
CCc1cc2c(COC(=O)c3c(C)noc3C)cc(=O)oc2cc1O	-7	-2.1	-8	0.4%	-7	1.4
O=C(CSc1nnc(-c2ccc(S(=O)(=O)N3CCCC3)cc2)o1)NCc1ccccc1	-3	-1.1	0	3.5%	-8	0.7
CCn1c(NCc2cc(OC)ccc2OC)nc2ccccc21	-11	-2.3	-1	-0.1%	-29	-0.4
Cc1ccc2c(c1)C(=O)N1[C@H]3c4cc(C)ccc4OC[C@@H]3[C@H](c3ccccc3)[C@]1(C)C(=O)N2	-4	-0.9	-15	7.2%	-8	0.3
COc1ccccc1NC(=O)NCCN1CCN(C(=O)Nc2ccccc2OC)CC1	9	-6.3	-14	1.5%	-5	0.0
COc1ccc(CC(=O)OCC(=O)N2CCCc3ccccc32)cc1	11	-2.3	18	2.1%	-2	1.1
O=C(O)/C=C/C(=O)Nc1ccccc1C(=O)Nc1ccccc1	5	0.9	9	-0.6%	7	-0.1
Oc1c(Cl)cc(Cl)cc1/C=N/c1nccs1	-5	-4.6	-24	-1.1%	-20	0.4
COc1ccc(Cl)cc1NS(=O)(=O)c1cc(-c2cc(C)no2)ccc1C	8	.	.	5.0%	.	0.0
O=C(NCC(c1ccco1)N1CCc2ccccc2C1)c1ccccc1Cl (stereo not given)	8	-0.4	-9	2.3%	14	0.8
CN1C[C@@H]2[C@@H]3C(=O)N(Cc4ccccc4)C(=O)[C@@H]3[C@](Cc3ccccc3)(C1=O)N2C(=O)c1ccc(F)cc1	-10	-1.3	0	1.2%	-1	-0.1
COc1ccccc1CNC(=O)CCn1c(=O)c2ccccc2n(CC(=O)Nc2ccc(C)cc2Cl)c1=O	-30	.	.	0.8%	.	-0.1
c1ccc(-c2nccnc2-c2ccccc2)cc1	-5	0.2	15	-1.3%	-6	2.8
CS(=O)(=O)c1ccc(C(=O)NNC(=O)c2cc(-c3ccccc3)n[nH]2)cc1	-15	-1.8	-6	0.4%	-3	-0.1
CN(C)CCNC(=O)c1c(O)c2c([nH]c1=O)CCCC2	-18	-0.8	2	-1.8%[38.3 µM]	7	-0.6
O=C(NCCN1CCOCC1)c1cc(-c2ccco2)on1	7	-2.5	2	-0.9%	-8	0.1
NC(=O)N/N=C/c1c(F)cccc1F	-4	-1.9	6	-1.0%	4	-0.1
COc1ccc(S(=O)(=O)Oc2c(OC)cc(C(=S)N3CCOCC3)cc2OC)cc1	-6	8.5	-4	1.3%	7	-0.1
O=C(Nc1ccc(C(=O)N2CCCC2)cc1)c1ccc(F)cc1Cl	-14	0.9	-1	-2.3%	7	-0.4
COC(=O)c1c(NS(=O)(=O)Cc2ccccc2)sc2c1CCCC2	10	-2.4	3	.	-6	3.0
COc1ccc(CC(=O)Nc2cc(S(=O)(=O)N3CCCC3)ccc2Cl)c(OC)c1	23	5.3	-1	0.7%	-4	1.4
O=C(CSc1nc2c([nH]c3ccccc32)c(=O)n1-c1ccccc1)NCC1CCCO1 (stereo not given)	-10	-14	5	-0.3%	-26	0.0
COCCCNc1nc2nonc2nc1N1C[C@H]2CC[C@H]1C2	-2	2.5	5	-0.5%	-7	1.6
CC(C(=O)Nc1ccc(S(=O)(=O)N2CCOCC2)cc1)N1C(=O)C2CC=CCC2C1=O (stereo not given)	8	-0.6	4	-0.4%	-5	0.2
CCCCN(Cc1ccccc1)S(=O)(=O)c1ccc2c(c1)CC(C)N2C(=O)CC (stereo not given)	39	.	.	0.8%	.	5.5
CN(Cc1ccc(C(F)(F)F)cc1)C(=O)[C@H]1O[C@@H](n2ccc(=O)[nH]c2=O)[C@H](O)[C@@H]1O	.	3.1	12	0.9%	-3	-0.7
O=C(COC(=O)c1cc(=O)[nH]c2ccccc12)NC1CCCCCCC1	-6	-0.4	-1	1.6%	-7	-1.1
CCOc1cc(-c2sc(Nc3ccccc3)n[n+]2C)ccc1OC	-6	0.7	0	2.2%	-7	-0.7
CCC1CCCCN1C(=O)CCn1c(=O)oc2ccccc21 (stereo not given)	-6	2.9	6	-0.2%	-2	-0.2
O=C(Cc1ccc(F)cc1)N1CCN=C1SCc1cccc([N+](=O)[O-])c1	-15	3.2	1	0.9%	4	1.5
Cc1c(C(=O)Nc2ccncc2)sc2nc(-c3ccc(F)cc3)cn12	5	3.5	-10	-0.5%	-9	-0.4
CC1CCN(C(=O)CN(c2ccccc2)S(=O)(=O)N(C)C)CC1	1	3.6	7	-2.2%	2	2.1
Cc1onc(-c2ccccc2)c1C(=O)N/N=C/c1cccs1	7	-2.1	-4	-0.4%	-16	-0.5
COCc1cc(C)nc(SCc2ccccc2)c1C#N	-1	1.7	42	4.1%	0	2.4
Cc1ccc(N2C(=O)C(Cl)=C(N3CCN(C)CC3)C2=O)c(C)c1	-1	0.8	5	-0.8%	-14	1.4
CC1CCCCN1C(=O)COC(=O)C1CCN(S(=O)(=O)c2ccc(Cl)c(C(F)(F)F)c2)CC1 (stereo not given)	-12	-5.3	3	11%	0	1.6
CC(C)C(c1nnnn1C1CCCCC1)N1CCc2ccccc21 (stereo not given)	12	-1.1	-11	0.1%	10	-0.1
CCNc1nc(N)c(C(=O)c2ccc(Cl)s2)s1	0	-3.3	-17	-0.9%	-10	1.0
NS(=O)(=O)c1ccc(NC(=O)COc2ccc(C(=O)c3ccc(F)cc3)cc2)cc1	2	3.9	1	-0.1%	-1	0.8
CC1(c2ccccc2)NC(=O)N(CC(=O)Nc2cc3c(cc2Br)OCCO3)C1=O (stereo not given)	31	-2.6	7	-0.1%	-1	0.0
CC(=O)N1CCC(C(=O)OCc2ccc(Cl)cc2)(c2ccccc2)CC1	-1	4.1	3	0.6%	-1	1.1
CCCCNC(=O)C1(C)CCCCN1C(=O)c1ccc2c(c1)C(C)(C)CCC2(C)C (stereo not given)	.	-1.4	4	22%	-8	2.5

Complete entries from above:
CCC1CCCCN1C(=O)CCn1c(=O)oc2ccccc21 (stereo not given) across the screens: TRPML1 blocker: -6; D2 agonist: 2.9; Six1-Eya2 inh: 6; PINK1 expr mod: -0.2%; D2 potentiator: -2; TRPML1 ag: -0.2
COCCCNc1nc2nonc2nc1N1C[C@H]2CC[C@H]1C2 across the screens: TRPML1 blocker: -2; D2 agonist: 2.5; Six1-Eya2 inh: 5; PINK1 expr mod: -0.5%; D2 potentiator: -7; TRPML1 ag: 1.6

Continued.
SMILES	TRPML1 blocker	D2 agonist	Six1-Eya2 inh	PINK1 expr mod	D2 potentiator	TRPML1 ag
CN(C)C(CNC(=O)c1ccc(S(=O)(=O)NCc2ccco2)cc1)c1ccccc1 (stereo not given)	-6	-0.4	3	-2.0%	-19	1.1
O=C(Nc1ccnn1C1CCN(C(=O)Cc2ccccc2F)CC1)C1CC1	6	0.0	10	0.9%	-3	0.4
CCOC(=O)C1C(=O)OC2(CCOC(C)(C)C2)C1C(=O)OCC (stereo not given)	-1	1.1	-1	1.9%	8	-0.1
COC(C[C@@H](O)[C@@H](C)[C@@H](O)COCc1ccccc1)OC	-5	-2.0	25	1.1%	0	-0.3
COc1ccc(N2CCN(CCCNC(=O)Nc3ccccc3)CC2)cc1	16&0	-1.4	-5	-1.0%&-2.5%	-24	-0.4&-1.0
OC(CNCCc1ccc(Cl)cc1)COc1cc(Cl)ccc1Cl (stereo not given)	.	0.1	3	-1.5%	-24	.
Cc1ccc2c(c1)C(c1ccccc1)CC(=O)O2 (stereo not given)	-12	-2.4	3	3.6%	-5	0.3
C[C@H](CO)N1C[C@H](C)[C@@H](CN(C)C(=O)C2CCCCC2)OCc2cnnn2CCCC1=O	-9	-0.9	5	-1.4%	-1	-0.2
CC(C)Cn1c(-c2csc(C(C)C)c2)n[nH]c1=S	22	-6.4	8	-1.3%	0	-0.1
Cc1cc(NCc2ccccn2)ccc1Br	-10	-0.7	-6	13%[38.3 µM]	-7	0.7

3 structures from above, ordered by SMILES length, lowest first.
SMILES	TRPML1 blocker	D2 agonist	Six1-Eya2 inh	PINK1 expr mod	D2 potentiator	TRPML1 ag
COc1ccc(N2CCN(CCCNC(=O)Nc3ccccc3)CC2)cc1	16&0	-1.4	-5	-1.0%&-2.5%	-24	-0.4&-1.0
O=C(Nc1ccnn1C1CCN(C(=O)Cc2ccccc2F)CC1)C1CC1	6	0.0	10	0.9%	-3	0.4
COC(C[C@@H](O)[C@@H](C)[C@@H](O)COCc1ccccc1)OC	-5	-2.0	25	1.1%	0	-0.3
